TAR Tat displ = HIV-1 TAR-Tat binding disruption | AID 1259389 | 0.6% of 100,000 active | HIV-1 TAR RNA, Tat peptide displacement FRET; hits give high values | z-score (concentration not given with the values);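 also: score is relative to mean and SD of negative controls; some compounds called inactive have numbers as strong as hits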
CDC25B-CDK2 inh = human CDC25B-CDK2/CyclinA binding inhibition; P30305+P24941; HTRF CDC25B-CDK2/CyclinA binding, anti-His/anti-Flag; hits give high values; z-score (test concentration not listed); 0.72% of 94,000 active; AID 1259370;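 also: score is relative to mean and SD of negative controls; strong numbers were not always called active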
Numbers without * were called inactive; / = no result given.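 The calls were made as follows: active = z-score from 3 up in half or more of its runs; inactive = the rest.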

SMILES	TAR Tat displ	CDC25B-CDK2 inh
COc1ccc(NC2=NS(=O)(=O)C(c3ccc(OC)cc3)=C2C)cc1	-0.05	-0.01
CC1Cc2ccccc2N1C(=O)CSc1nnc2sc3ccccc3n12 (configuration not stated)	/	-0.5
c1ccc2c(c1)OCC(c1nnc3sc(-c4ccncc4)nn13)O2 (configuration not stated)	2.5	-2
Cc1ccnc(NCc2ccc(N(C)C)cc2)c1	2.2	-0.19
CC(C)Cn1cc(NC(=O)NCCN2CCCCC2)c2ccccc2c1=O	0.75	/
CCCC1/C(=N\O)CC(c2ccco2)NC1c1ccco1 (configuration not stated)	/	-1.1
O=C(Oc1nsnc1N1CCOCC1)N1CCCCC1	-0.05	-2.4
CC1(C(=O)NC2CCCCC2)CCC(=O)N1Cc1cccnc1 (configuration not stated)	/	-0.51
COCc1nnc(NC(=O)CCC2CCCCC2)s1	-1.2	-0.51
N#CCC(=O)NNC(=O)/C=C/C(=O)O	/	1.1
Cc1nc(S(=O)(=O)c2ccc(Br)cc2)c(N2CCOCC2)o1	1.2	/
CCOC(=O)N1CCN(c2nc3ccc(C(=O)c4ccccc4)cc3n3cnnc23)CC1	-0.55	0.92
CC1CC(=O)Nc2ccccc2N1C(=O)C(C)(C)C (configuration not stated)	0.78	-1.5
O=C(C1CCCN(c2nnc(N3CCCC3=O)s2)C1)N1CCN(c2ncccn2)CC1 (configuration not stated)	0.31	/
Cc1ccc(-c2n[nH]c(=O)c3c2CCCC3)cc1S(=O)(=O)NC1CCCCC1	1.9	-0.7
O=C(NCc1ccc(F)cc1)NC(c1ccccc1)c1nnc(-c2ccccc2Cl)o1 (configuration not stated)	0.69	/
Cc1ccc(N=C2SC3(CC3)C(=O)N2c2ccc(C)cc2)cc1	/	-1.5
O=C(NCc1ccc(F)cc1)N1CCN2CCCCC2C1 (configuration not stated)	0.81	/
O=C(CSc1nc(-c2ccccc2)nc2cc(=O)[nH]n12)NCc1nc2ccccc2[nH]1	0.32	/
Cc1cc(C)c2c(N)c(C(=O)Nc3nnc(-c4cccs4)s3)sc2n1	/	-2.2

Some values from the list.
`O=C(C1CCCN(c2nnc(N3CCCC3=O)s2)C1)N1CCN(c2ncccn2)CC1` (configuration not stated) in TAR Tat displ = 0.31
`Cc1nc(S(=O)(=O)c2ccc(Br)cc2)c(N2CCOCC2)o1` in TAR Tat displ = 1.2
`CC1(C(=O)NC2CCCCC2)CCC(=O)N1Cc1cccnc1` (configuration not stated) in CDC25B-CDK2 inh = -0.51
`O=C(CSc1nc(-c2ccccc2)nc2cc(=O)[nH]n12)NCc1nc2ccccc2[nH]1` in TAR Tat displ = 0.32
`CC(C)Cn1cc(NC(=O)NCCN2CCCCC2)c2ccccc2c1=O` in TAR Tat displ = 0.75

More entries follow:
SMILES	TAR Tat displ	CDC25B-CDK2 inh
COc1cc(NC(=O)CSc2nc3nc(C)ccc3o2)cc(OC)c1	1.9	/
CC(C)CC1N=C2c3ccccc3N=C(SCC(=O)NC(C)C)N2C1=O (configuration not stated)	0.56	/
CCN1C(C(=O)OC)=C(OC(=O)c2ccc(Br)cc2)c2ccccc2S1(=O)=O	0.91	-1.8
Cc1nc2ncnn2c(Nc2ccc(Cl)cc2)c1C	0.44	/
CSc1nnc(-c2ccccc2Cl)o1	/	-0.56
CCn1c(C(=O)NCCCN(C)C2CCCCC2)c(N2CCCC2=O)c2cc(F)ccc21	1.3	/
Cc1c(COS(=O)(=O)c2ccc(Cl)cc2Cl)sc2ccccc12	/	-3.1
O=C(Oc1cccnc1)c1cccnc1	/	0.78
CCC(=O)OC1=C(C(=O)c2ccccc2)N(CC(=O)OC)S(=O)(=O)c2ccccc21	-1.5	1.2
COc1ccc2c(c1)nc1n2CN(CC2CCCO2)CN1Cc1ccccc1 (configuration not stated)	-0.8	-2.8
CN(C)/C=C1\C(=O)NN=C1c1ccccc1	/	0.06
CCc1nnc2c(=S)[nH]c3ccccc3n12	-0.3	-6.2
O=C(O)C1CCCCC1C(=O)N1CCN(c2ccc(F)cc2)CC1 (configuration not stated)	0.48	-0.79
CCCCN(CC)c1ncnc2ccc(C)cc12	-1.1	-0.06
COC(=O)CNC(=O)N1CCN(c2nc3cc(F)ccc3n3cccc23)CC1	2.6	/
CCOC(=O)NC1(NCC(C)C)Oc2ccccc2O1	1.2	-1.2
COc1ccccc1-c1cc(N)n(S(=O)(=O)c2ccccc2)n1	1.7	-1.8
C1=CCC(C2OCC(CN3CCCC3)O2)CC1 (configuration not stated)	/	-0.49
O=S(=O)(Nc1ccccc1N1CCOCC1)c1ccccc1	/	-2.3
Cc1ccc(-n2ncc3c(N4CCCCC4)ncnc32)cc1	0.93	/

By substructure, the compounds so far containing bromine (2)
SMILES	TAR Tat displ	CDC25B-CDK2 inh
Cc1nc(S(=O)(=O)c2ccc(Br)cc2)c(N2CCOCC2)o1	1.2	/
CCN1C(C(=O)OC)=C(OC(=O)c2ccc(Br)cc2)c2ccccc2S1(=O)=O	0.91	-1.8

The list goes on.
SMILES	TAR Tat displ	CDC25B-CDK2 inh
COc1ccc(/C=C/c2nn3c(-c4ccc(C)cc4)nnc3s2)cc1	1.4	-2.1
CCN1CCN(C(c2cccs2)C(C)NC(=O)C(=O)NCc2ccco2)CC1 (configuration not stated)	-0.69	-1.1
CCc1nnc(SCC(=O)Nc2cc(Cl)ccc2OC)c2cc3occc3n12	0.69	/
O=C(O)c1ccccc1SCc1cc(=O)n2nc(-c3ccccc3)sc2n1	0.39	-1.8
COc1cccc(/C=N/N(C)C2=NS(=O)(=O)c3cc([N+](=O)[O-])ccc32)c1O	/	-2.6
c1ccc(N2CCN(c3ccccc3)C2c2cccnc2)cc1	/	-3
CCOC(=O)c1c(C)oc2ccc(OCC)cc12	0.97	-0.73
CCOc1ccc(C2c3c(oc4cc(C)c(C)cc4c3=O)C(=O)N2c2ccccn2)cc1 (configuration not stated)	0.87	-1.5
CC(=O)N1c2ccc(S(=O)(=O)N3CCC(C(=O)NC4CCCC4)CC3)cc2CC1C (configuration not stated)	1.1	/
CC(C)C(=O)N(Cc1ccc(N(C)C)cc1)C1CCS(=O)(=O)C1 (configuration not stated)	/	-2.4
CCOC(=O)Sc1nc(-c2cccc([N+](=O)[O-])c2)cn1C(=O)OCC	/	-2.3
CCCc1nnc(NC(=O)Cc2coc3c(C)c(C)ccc23)s1	2.4	0.96
COc1ccc(S(=O)(=O)CCc2nc3ccccc3[nH]2)cc1	/	-0.52
Cc1ccc(C2CC(c3cccs3)=NN2c2nc(C)cs2)cc1 (configuration not stated)	0.36	0.01
CCOC(=O)c1c(C)oc(-c2ccc(C)cc2)c1S(=O)(=O)Nc1cccc(C(F)(F)F)c1	/	-1.3
COCCOC(=O)C1=C(C)Nc2nc3ccccc3n2C1c1cc(F)cc(F)c1 (configuration not stated)	0.25	0.18
CCOC(=O)c1c(NC(=O)CC)sc2c1CCC(Sc1ccccc1)C2=O (configuration not stated)	-0.21	-1
CCOC(=O)c1cnn(-c2cccc(Cl)c2)c1N	/	-0.82
Fc1ccc(NC(=S)N/N=C/c2cccnc2)cc1	/	-1.1
CCC(C)c1ccc(Nc2cc(-n3nc(C)cc3C)ncn2)cc1 (configuration not stated)	0.14	/
COc1ccc(-c2nc(=S)c3c([nH]2)Oc2ccc(F)cc2C3)cc1OC	0.72	0.34
O=C(O)C1(n2cccc2)CCCCC1	0.28	0.25
Cn1c(=O)n(C)c2cc(CNCc3cccnc3)ccc21	0.98	-0.61
Cc1nc(SCC(=O)Nc2cc(C)on2)c2c(=O)n(C)c(=O)n(C)c2n1	/	-0.94
Cc1ccc(-c2n[nH]n3c2nc(=O)c2ccc(Cl)cc23)cc1	2.6	-2.7
NCCCCC(=O)O	1.6	-0.15
Cc1c(NC(=O)c2cn3c4c(ccc(Cl)c4c2=O)OC(C)C3)c(=O)n(-c2ccccc2)n1C (configuration not stated)	1.2	/
O=C(Nc1nccs1)C(Cc1ccccc1)N1C(=O)c2ccccc2C1=O (configuration not stated)	/	-0.71
O=C(CCc1nnc2ccc(N3CCOCC3)nn12)NCCc1c[nH]c2ccccc12	-0.35	/
O=C(c1nnc(-c2ccccc2)o1)N1CCN(c2ccc(C(F)(F)F)cn2)CC1	/	-1.6
O=c1[nH]nnc2c1cnn2-c1ccccc1	0.32	-0.67
CCc1c(C)nc2n(c1=O)C(c1cccnc1)N=C(Nc1ccc(F)cc1)N2 (configuration not stated)	1.7	/
Cc1nc2c(c(C)nn2C)c(C)c1CCC(=O)NCCCN1CCCC1=O	1.1	0.15
COc1ccc2c(CCNc3nn4nnnc4c4ccccc34)c[nH]c2c1	1.9	0.85
CSc1ccc(CCNC(=O)c2ccc(CSc3nc4ccncc4[nH]3)cc2)cc1	1.1	0.52
CN1CCN(C2=C(C(=O)N3CCOCC3)S(=O)(=O)c3ccccc32)CC1	0.88	/
O=C(CN1c2ccccc2NC2=C(C(=O)CCC2)C1c1ccco1)NCc1ccncc1 (configuration not stated)	1.1	/
CCc1nnc(SCC(=O)N(C)c2ccccc2)c2cc3oc(C)cc3n12	-2	/
COc1ccc(C2C(C(=O)OC3CCCC3)=C(C)NC3=C2C(=O)CC(C)(C)C3)c(OC)c1 (configuration not stated)	/	-0.17
O=C(NCc1cscn1)C1CCN(S(=O)(=O)c2ccc(Br)cc2)CC1	1.7	/

Reprinted at random: 7 entries already listed.
SMILES	TAR Tat displ	CDC25B-CDK2 inh
O=C(CCc1nnc2ccc(N3CCOCC3)nn12)NCCc1c[nH]c2ccccc12	-0.35	/
COc1ccc2c(CCNc3nn4nnnc4c4ccccc34)c[nH]c2c1	1.9	0.85
CCc1nnc(SCC(=O)N(C)c2ccccc2)c2cc3oc(C)cc3n12	-2	/
NCCCCC(=O)O	1.6	-0.15
CN1CCN(C2=C(C(=O)N3CCOCC3)S(=O)(=O)c3ccccc32)CC1	0.88	/
Cc1ccc(-c2n[nH]n3c2nc(=O)c2ccc(Cl)cc23)cc1	2.6	-2.7
COc1ccc(-c2nc(=S)c3c([nH]2)Oc2ccc(F)cc2C3)cc1OC	0.72	0.34

(more compounds)
SMILES	TAR Tat displ	CDC25B-CDK2 inh
O=C(Nc1cccnc1)C(=O)Nc1cccnc1	/	0.92
Cc1cc(C)cc(NC(=O)C2CCN(S(=O)(=O)c3c(C)noc3C)CC2)c1	/	-1.2
Cc1ccccc1Cn1cccc1CNS(=O)(=O)c1ccccc1	1.1	/
COc1ccc(NS(=O)(=O)c2ccc(-c3cnc(C4CC4)o3)cc2)cc1	0.72	/
COc1cccc(C2C(C(=O)OC3CCCCC3)=C(C)NC3=C2C(=O)CCC3)c1OC (configuration not stated)	0.76	-0.82
Cc1oc(C(=O)O)cc1COc1ccc2c3c(c(=O)oc2c1C)CCCC3	/	-1.2
CC1(C)C(=O)Nc2ccc(S(=O)(=O)N3CCc4ccccc43)cc21	-1.5	/
O=C1CC(c2ccccc2)CC2=C1C(c1cccc(O)c1)Nc1ccccc1N2 (configuration not stated)	-0.13	0.07
CC(CCc1ccccc1)NC(=O)CCCn1ncn2c(cc3occc32)c1=O (configuration not stated)	1.4	-0.98
CCOC(=O)c1cn[nH]c1S(=O)(=O)NCc1ccco1	-0.43	/
Cc1cccn2c(=O)c(C(=O)NC3CCCCC3)c(O)nc12	1.1	-0.57
O=C(CN1N=NC2C(=O)N(c3ccc(F)c(F)c3)C(=O)C21)Nc1ccc(Oc2ccccc2)cc1 (configuration not stated)	-1.3	/
COc1ccc(OC)c(C2=NS(=O)(=O)N(C)C(C(=O)N3CCN(C)CC3)=C2)c1	-0.1	-2.1
Cc1c(C(=O)Nc2ccc(Cl)cc2)sc2nc3n(c(=O)c12)CCC3	1.5	/
O=C(Cn1ncn2nc(-c3cccs3)cc2c1=O)NC1CCCc2ccccc21 (configuration not stated)	-0.04	-0.81
O=C1CC(c2cccc(Cl)c2)Cc2nc(N3CCc4ccccc43)ncc21 (configuration not stated)	12	-0.88
Cc1ccc(-n2nnc(-c3nc(-c4ccccc4F)no3)c2N)cc1	0.23	/
CCOCCOC(=O)COc1ccc2c(=O)c(-c3ccc(Cl)cc3)coc2c1	2.3	-0.36
CCCN1C(=O)c2cc3occc3n2CC1(C)C(=O)NC1CCC(C)CC1 (configuration not stated)	6.3	/
CCOC(=O)COc1ccc2c(oc(=O)c3ccccc32)c1C	0.64	-4.1

3 of the compounds above, with bars between the fields:
canonical_smiles | TAR Tat displ | CDC25B-CDK2 inh
COCc1nnc(NC(=O)CCC2CCCCC2)s1 | -1.2 | -0.51
CC(C)Cn1cc(NC(=O)NCCN2CCCCC2)c2ccccc2c1=O | 0.75 | /
COc1ccc(OC)c(C2=NS(=O)(=O)N(C)C(C(=O)N3CCN(C)CC3)=C2)c1 | -0.1 | -2.1

Next records follow.
SMILES	TAR Tat displ	CDC25B-CDK2 inh
O=C(N/N=C\c1c(O)ccc2ccccc12)c1cc(-c2ccccc2)nc2ccccc12	/	-2.5
CCN(CC)c1ccc2nnc(CCC(=O)Nc3ccc(Cl)cn3)n2n1	0.25	/
CC(C)NC(=O)CN1C(=O)COc2ccc(S(=O)(=O)N3CCCC3)cc21	/	-0.48
O=C(c1noc2c1CSc1ccccc1-2)N1CCC(N2CCCCC2)CC1	0.83	-0.13
Cc1noc(C)c1NC(=O)NC(=O)c1c(F)cccc1Cl	/	-1.3
Clc1ccc(Cc2nnc(-c3ccc(Cl)cc3)o2)cc1	0.88	-1.3
CC1=C(C(=O)OCCc2ccccc2)C(c2coc3ccc(C)cc3c2=O)C2=C(CC(C)(C)CC2=O)N1 (configuration not stated)	3	-1.6
O=C1/C(=C\c2ccc(O)c(O)c2)Oc2cc(O)ccc21	-6.2	/
CN1C(=O)c2cc(C(=O)Nc3ccc4c(c3)OCCO4)nn2CC1(C)C(=O)NC1CCCCC1 (configuration not stated)	0.03	/
COc1ccccc1NS(=O)(=O)c1cccc(S(=O)(=O)c2ccc(Br)cc2)c1	1.2	-1.2
Cc1nc(CC(=O)Nc2nnc(C)s2)cs1	1.2	-0.81
COc1cccc(C2=CC(c3ccc(OC)c(OC)c3)n3ncnc3N2)c1 (configuration not stated)	1.2	/
O=C(Nc1ccc2c(c1)OCCO2)N1CCSc2ncccc21	-0.01	/
O=C(NCCc1cccs1)c1ccc(CS(=O)c2ccc(F)cc2)o1 (configuration not stated)	1.1	/
CC(C)=CCc1c2c(c3occ(-c4ccc(O)c(O)c4)c(=O)c3c1O)C=CC(C)(C)O2	3.1	/
